D2 ag – activates the human D2 dopamine receptor; P14416; AID 624465; activation, % (concentration not given with the values); DiscoveRx PathHunter D2 beta-arrestin, luminescence, 90 min; 100% = 57 uM dopamine signal; hit rate 0.084% among 360,000; in the data active = activation above about 40%; inconclusive = about 15% to 40%; inactive = below about 15%; note: compound concentration not given in the record; the text of the record calls up to 30% inactive
Target sequence (P14416 whole entry, looked up): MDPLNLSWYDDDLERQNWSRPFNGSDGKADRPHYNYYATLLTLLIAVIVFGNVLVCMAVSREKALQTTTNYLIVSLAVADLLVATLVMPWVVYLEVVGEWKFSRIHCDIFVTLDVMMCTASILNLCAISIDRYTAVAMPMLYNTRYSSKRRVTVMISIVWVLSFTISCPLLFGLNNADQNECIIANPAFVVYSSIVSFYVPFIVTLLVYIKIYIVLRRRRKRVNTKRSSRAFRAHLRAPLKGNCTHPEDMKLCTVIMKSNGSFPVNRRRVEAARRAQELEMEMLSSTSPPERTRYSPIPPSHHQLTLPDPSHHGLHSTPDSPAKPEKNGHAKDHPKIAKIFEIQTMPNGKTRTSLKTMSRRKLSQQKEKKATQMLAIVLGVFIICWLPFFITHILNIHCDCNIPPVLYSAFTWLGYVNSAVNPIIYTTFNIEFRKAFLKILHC
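DiscoveRx PathHunter D2 beta-arrestin cells (2,100/well) attached overnight, then compound-stimulated 90 min at 37 C in HBSS/10 mM HEPES/0.1% Tween-20 buffer; beta-galactosidase complementation read by luminescence after 1 h at ambient temperature. Dopamine 57 uM final (EC100) as control.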
gsp agonist – gsp mutant agonism; gsp mutant cells, cAMP HTRF, 30 min; control for the full effect not named in the record; Potency, µM (titrated, usually from 76.9 µM), for the others: top-dose activation (cAMP increase), actives largely listed as activators; hit rate 0.13% among 340,000; active = well fitted activation curve with a large enough effect; inconclusive = small, poorly fitted or top-dose-only effect, or another doubt; inactive = no such curve, though single readings can be large or run the other way; cell line not stated here;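 note: phosphodiesterase inhibitor Ro 20-1724 added with compounds to block cAMP breakdown; potency is the fitted concentration of half-maximal effect; nearly all actives have a fitted effect of over 60% in size; about a fifth of the inactives were tested at one dose only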
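Cells stably selected in G418 were plated at 2000/well, grown 16-24 hr, then given compounds in DMSO with the PDE inhibitor […] (300 uM solution added) for 30 min at 37C; cAMP was read by HTRF.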
ClpP mod – qHTS Assay for Activators of ClpP; AID 651965, 2013; ATP-dependent Clp protease proteolytic subunit (Bacillus subtilis (strain 168)), P80244; Potency, µM (titrated, usually from 57.5 µM), inactives show at the highest dose activity change, negative = active; hit rate 1.9% among 340,000; purified B. subtilis ClpP, FRET peptide cleavage, 20 min; active = well fitted falling curve with a large enough effect; inconclusive = small, poorly fitted or top-dose-only effect; inactive = no such curve, though single readings can be large or run the other way; note: potency is the fitted concentration of half-maximal effect; the source files actives as falling curves though it sought activators and does not explain the sign; nearly all actives have a fitted effect of over 65% in size; many hits overshoot -100%
Target sequence (P80244 whole entry, looked up): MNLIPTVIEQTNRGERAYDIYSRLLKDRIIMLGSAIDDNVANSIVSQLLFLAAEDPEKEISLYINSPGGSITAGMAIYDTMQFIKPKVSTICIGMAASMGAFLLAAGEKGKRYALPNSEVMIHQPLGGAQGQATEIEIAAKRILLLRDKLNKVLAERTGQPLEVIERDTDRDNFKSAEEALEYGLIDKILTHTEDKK
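ClpP 10 microg/mL final, pH 8 Tris/KCl buffer with BSA, glycerol, Tween-20; compound pinned in; FRET-FV substrate; RT 20 min; Ex320/Em430; ΔFRET vs ADEP 5.8 microM, DMSO, no enzyme.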
PINK1 expr mod – PINK1 expression modulation; Potency, µM (top dose mostly 76.6 µM), for inactives: top-dose activation (PINK1 increase), usual class: activators; hit rate 0.2% among 410,000; PINK1 immunofluorescence, high-content cytometry, 24 h; AID 624263; active = well fitted activation curve with a large enough effect; inconclusive = small, poorly fitted or top-dose-only effect; inactive = flat fitted curve, though single readings scatter; cell line not stated here;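 note: potency is the fitted concentration of half-maximal effect; % of control where 0% means no effect; nearly all actives have a fitted effect of over 65% in size; a mitochondrial uncoupler was the plate control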
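Stable cell line, 250 cells/well, 12 h attachment; compounds pinned at 5 concentrations, 24 h; CCCP control. Fixed with nuclear dye, primary antibodies 12 h at 10 degrees C, secondary plus cell stain; laser-scanning cytometer read.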
gsp antagonist – antagonists of gsp mutant (McCune-Albright syndrome) | Potency, µM (top dose mostly 76.9 µM), for the others: at the highest dose activity change, negative = inhibition, most hits filed as inhibitors | hit rate 0.4% among 340,000 | gsp-mutant cells, cAMP HTRF, 30 min; control for the full effect not named in the record; active = falling curve of any shape with a large fitted effect; inconclusive = falling curve, mostly with a smaller effect; inactive = flat or rising curve; cell line not stated here;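 note: intracellular cAMP measured with PDE inhibitor Ro 20-1724 present during compound exposure; potency is the fitted concentration of half-maximal effect; % is set by controls: 0 for no effect and ±100 for the full control effect; nearly all actives have a fitted effect of over 65% in size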
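Measurement of cellular cAMP by homogeneous time-resolved fluorescence following a 30 min compound exposure at 37C. The PDE inhibitor […] was present throughout; the assay buffer was DPBS with 0.05% BSA and 0.005% Tween 20.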
Menin MLL FP FL – inhibitors of human menin-MLL interaction, wild-type MLL peptide. 290,000 tested, under 10 active. AID 1766. FP activity change, % at 61.4 µM. Fluorescence polarization, fluorescein-MLL peptide displacement from menin; inconclusive = falling polarisation curve, or a change in total fluorescence; inactive = total fluorescence flat and polarisation flat or rising; no compound was filed as active; the % refers to the polarisation; negative = inhibition;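 note: % of control where 0% means no effect; inhibitors lower the polarisation; unlabelled MLL peptide was the positive control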
Sfp PPTase inh – blocks B. subtilis Sfp PPTase activity; Q9F4F7; Potency, µM, inactives show max response, negative = inhibition, most hits filed as inhibitors; hit rate 3.5% among 310,000; AID 1490; Biochemical Sfp PPTase activity, qHTS; active = well fitted inhibition curve with a large enough effect; inconclusive = small, poorly fitted or top-dose-only effect, or another doubt; inactive = no such curve, though single readings can be large or run the other way;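 note: the enzyme is Sfp with the accession as filed and its product quenches rhodamine fluorescence; potency is the fitted concentration of half-maximal effect; 0% = enzyme reaction without inhibitor and -100% = no enzyme wells; top concentration of the series not given in the record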
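Fluorescence-quenching assay: 15 nM Sfp-PPTase preincubated 15 min at room temperature with compound, then 5 uM rhodamine-CoA and 12.5 uM BHQ-2-labelled YbbR peptide added. Fluorescence (ex 525/em 598 nm) read at start and after 30 min; difference gives rate.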
* hit, by the source's call; [ ] = remark or other dose.

Results for O=c1c2c3c(sc2nc(NCCOCCO)n1Cc1ccco1)CCCCC3 ?
D2 ag: -2.6; gsp agonist: -13%; ClpP mod: -0.8%; PINK1 expr mod: -2.5%; gsp antagonist: 4%; Menin MLL FP FL: 2.6; Sfp PPTase inh: 4%

How did C=CCN(c1ccc(Cl)cc1)S(=O)(=O)c1cccc(C(=O)OCC(=O)N(C)C)c1 do in these assays?
D2 ag: 6.2; gsp agonist: 9%; ClpP mod: -0.3%; PINK1 expr mod: -0.7%; gsp antagonist: -14%; Menin MLL FP FL: -0.8; Sfp PPTase inh: -30%

What do the screens show for `CCCNC(=O)NC(=O)CSc1nnc(-c2c[nH]c3ccccc23)o1`?
D2 ag: 0.8; gsp agonist: 18%; PINK1 expr mod: 1.8%; gsp antagonist: 2%; Menin MLL FP FL: 3.1; Sfp PPTase inh: 8%

Results for CCOc1cc2c(cc1OCC)C(c1ccc(OC)c(OC)c1)N(c1ccc(C(=O)O)cc1)C(=O)C2 (stereo unspecified) ?
D2 ag: -2.8; gsp agonist: 15%[15.4 µM]; ClpP mod: -2.2%; PINK1 expr mod: -2.6%; gsp antagonist: 3%; Menin MLL FP FL: -1.9; Sfp PPTase inh: 10%

Results for C[C@H]1COC(=O)[C@H](NC(=O)OCC2c3ccccc3-c3ccccc32)C/C=C\C[C@H](CC(=O)N(CCO)Cc2ccccc2)C(=O)N1 ?
D2 ag: -1.7; ClpP mod: 0.1%; PINK1 expr mod: 1.4%; gsp antagonist: -22%

Results for CC(C)(C)c1ccc(S(=O)(=O)N2CCN(C(=O)C3CCC3)CC2)cc1 ?
D2 ag: -1.5; gsp agonist: 0%; ClpP mod: -11%; PINK1 expr mod: 2.0%; gsp antagonist: -10%; Sfp PPTase inh: 10%

What do the screens show for `Cc1ccc(S(=O)(=O)N2CCN(C(=O)COC(=O)c3cccnc3Cl)CC2)c(C)c1`?
D2 ag: 1.0; gsp agonist: 12%; ClpP mod: 1.4%; PINK1 expr mod: 4.7%; gsp antagonist: -5%

What do the screens show for `O=[N+]([O-])c1ncccc1OCc1ccc(-c2ccccc2)cc1`?
D2 ag: -2.7; gsp agonist: -5%[15.4 µM]; PINK1 expr mod: 27%; gsp antagonist: 0%; Menin MLL FP FL: 6.4; Sfp PPTase inh: 3%

Results for CCn1c(SCC(=O)NCc2ccccc2)nnc1-c1cccnc1 ?
D2 ag: 1.6; gsp agonist: -10%; PINK1 expr mod: -0.2%; gsp antagonist: 1%; Menin MLL FP FL: -0.6; Sfp PPTase inh: 14%

How did NC(=O)c1ccc(NC(=O)c2cc(S(=O)(=O)N3CCCCC3)ccc2N2CCOCC2)cc1 do in these assays?
D2 ag: -2.6; gsp agonist: 1%; ClpP mod: -2.7%; PINK1 expr mod: -0.2%; gsp antagonist: -3%

Results for CC(C)(C)c1ccc(OCC(O)CN2CCCC2)cc1 (stereo unspecified) ?
D2 ag: -1.0; gsp agonist: 2%[15.4 µM]; ClpP mod: 1.7%; PINK1 expr mod: 1.0%; gsp antagonist: 13%; Menin MLL FP FL: -4.5; Sfp PPTase inh: 6%

What do the screens show for `Cc1nc2ncnn2c(C)c1CCC(=O)NCCc1ccccc1`?
D2 ag: -0.8; gsp agonist: 11%; ClpP mod: -2.3%; PINK1 expr mod: -2.1%; gsp antagonist: 4%; Menin MLL FP FL: 4.4; Sfp PPTase inh: 14%

Results for CCCOC(=O)C1=C(C)NC2=C(C(=O)CCC2)C1c1cccs1 (stereo unspecified) ?
D2 ag: -3.4; gsp agonist: 3%; ClpP mod: inconclusive; PINK1 expr mod: 1.8%[38.3 µM]; gsp antagonist: -11%; Menin MLL FP FL: -3.1; Sfp PPTase inh: 10%

Results for Cc1cc2cc(CNC(=O)c3cccc([N+](=O)[O-])c3)ccc2n1C ?
D2 ag: -3.0; gsp agonist: -20%; ClpP mod: -3.5%; PINK1 expr mod: 1.2%; gsp antagonist: 2%; Menin MLL FP FL: -17; Sfp PPTase inh: -13%

How did CC(C)(C)c1ccc(-c2nnc(SCC(=O)NC3CCS(=O)(=O)C3)n2N)cc1 (stereo unspecified) do in these assays?
D2 ag: -2.7; gsp agonist: -21%[15.4 µM]; PINK1 expr mod: 0.4%; gsp antagonist: 10%; Menin MLL FP FL: 5.4; Sfp PPTase inh: -22%

How did O=C(CCS(=O)(=O)c1cc(Br)cc2c1N(C(=O)C1CC1)CC2)NCC1CCCO1 (stereo unspecified) do in these assays?
D2 ag: -3.1; gsp agonist: -2%; ClpP mod: 1.4%; PINK1 expr mod: 1.4%; gsp antagonist: 1%; Menin MLL FP FL: 3.1; Sfp PPTase inh: 5%

How did C[C@@H]1CCCCO[C@H](CN(C)Cc2ccc3c(c2)OCO3)[C@@H](C)CN([C@H](C)CO)C(=O)c2cc(NC(=O)c3ccccc3)ccc2O1 do in these assays?
D2 ag: 1.1; gsp agonist: -27%; ClpP mod: -0.4%; PINK1 expr mod: 1.5%

Results for N#Cc1c(Nc2ccc(F)cc2)sc(C(=O)c2ccc(F)cc2)c1N ?
D2 ag: 4.0; gsp agonist: 5%; ClpP mod: 0.7%; gsp antagonist: 0%; Menin MLL FP FL: 1.4; Sfp PPTase inh: -2%

Results for COc1ccc(NC(=O)C2CCN(C(=O)c3ccccc3)CC2)cc1OC ?
D2 ag: 0.0; gsp agonist: 8%; ClpP mod: -0.4%; PINK1 expr mod: 5.4%[38.3 µM]; gsp antagonist: 1%; Menin MLL FP FL: 4.3; Sfp PPTase inh: 9%

How did CCNc1nc(N)nc(Oc2ccc(OCC)nn2)n1 do in these assays?
D2 ag: -3.4; gsp agonist: -17%; ClpP mod: 1.9%; gsp antagonist: 4%; Menin MLL FP FL: 2.4; Sfp PPTase inh: 8%

What do the screens show for `O=C(NNS(=O)(=O)c1ccc(F)cc1)c1ccc(O)cc1`?
D2 ag: 6.8; gsp agonist: inconclusive; ClpP mod: 0.8%; PINK1 expr mod: 0.9%; gsp antagonist: 7%; Menin MLL FP FL: 0.3; Sfp PPTase inh: 14%

How did Cc1noc(C)c1C(=O)N1CCC[C@@]2(CCN(Cc3ccc(C#N)cc3)C2)C1 do in these assays?
PINK1 expr mod: -0.2%; Menin MLL FP FL: -7.2; Sfp PPTase inh: 5%

How did O=C(CCC1CCCN(C(=O)c2ccc3[nH]ccc3c2)C1)N1CCN(c2ccccn2)CC1 (stereo unspecified) do in these assays?
D2 ag: 3.6; gsp agonist: 4%; PINK1 expr mod: -1.6%; gsp antagonist: -12%; Menin MLL FP FL: -5.1; Sfp PPTase inh: 16%

What do the screens show for `CC(=O)Nc1cncc(-c2cccc(C(=O)NCCN(C)C)c2)n1`?
D2 ag: -5.1; ClpP mod: 4.2%; PINK1 expr mod: 0.5%

What do the screens show for `CCCOc1ccc(F)cc1-c1cc(C(=O)NCc2ccc(F)cc2)[nH]n1`?
D2 ag: 4.3; ClpP mod: inconclusive; PINK1 expr mod: 2.9%

Results for CC(C)(C)NC(=O)NC(=O)CN1c2cccc3cccc(c23)S1(=O)=O ?
D2 ag: 6.9; gsp agonist: 16%[15.4 µM]; PINK1 expr mod: -0.5%; gsp antagonist: -2%; Menin MLL FP FL: 11; Sfp PPTase inh: 0%

Results for O=C(c1ccc(CNS(=O)(=O)c2cccc(C(F)(F)F)c2)cc1)N1CCOCC1 ?
D2 ag: -4.8; gsp agonist: 12%; ClpP mod: -0.9%; PINK1 expr mod: -5.1%[38.3 µM]; gsp antagonist: 9%; Menin MLL FP FL: -0.4; Sfp PPTase inh: 17%

What do the screens show for `OCCN(Cc1ccccc1)Cc1ccccc1Cl`?
D2 ag: -3.9; gsp agonist: 18%; ClpP mod: 0.3%; PINK1 expr mod: inconclusive; gsp antagonist: 5%; Menin MLL FP FL: 3.2; Sfp PPTase inh: 28µM*

What do the screens show for `COc1ccc(C(=O)N/C(=C\c2ccc([N+](=O)[O-])cc2)C(=O)NC(CCSC)C(=O)O)cc1` (stereo unspecified)?
D2 ag: 0.3; gsp agonist: -30%; ClpP mod: 1.2%; PINK1 expr mod: -0.9%; gsp antagonist: -24%; Menin MLL FP FL: 7.8; Sfp PPTase inh: -21%

How did Cc1cc(C(C)(C)C)oc1C(=O)N(CC(=O)NC1CCCC1)Cc1ccc(Cl)cc1 do in these assays?
D2 ag: -4.6; gsp agonist: 16%; ClpP mod: 0.7%; gsp antagonist: -6%; Menin MLL FP FL: 1.9; Sfp PPTase inh: 11%

Results for CS(=O)(=O)N1CCC2(CC1)CN(c1ncccn1)C2 ?
PINK1 expr mod: 0.1%; Menin MLL FP FL: -8.6; Sfp PPTase inh: 1%

Results for O=C(Nc1ccc(N2CCN(C(=O)c3ccccc3)CC2)cc1)c1cc2ccccc2o1 ?
D2 ag: 11; gsp agonist: -10%; ClpP mod: 77%; PINK1 expr mod: 8.6%; gsp antagonist: 35µM*; Menin MLL FP FL: 4.1; Sfp PPTase inh: 8%

Results for O=C(CSc1nc(-c2ccc(F)cc2)cs1)N1CCOCC1 ?
D2 ag: 3.2; gsp agonist: 3%; ClpP mod: -0.1%; PINK1 expr mod: -2.2%[38.3 µM]; gsp antagonist: -5%; Menin MLL FP FL: 0.0; Sfp PPTase inh: -2%

Results for O=C(NCc1ccc2c(c1)OCO2)c1nn(-c2ccccc2)c(=O)c2ccccc12 ?
D2 ag: -0.3; gsp agonist: inconclusive; ClpP mod: inconclusive; PINK1 expr mod: 5.3%; gsp antagonist: -6%; Menin MLL FP FL: -0.1; Sfp PPTase inh: 17%

Random draw from the library (roughly 5.1% active in at least one column).
